Assay outcomes deposited in PubChem BioAssay by several laboratories.
Vif TR-FRET: inhibitors of Vif binding to APOBEC3G peptide, primary screen, biochemical, TR-FRET, GST-Vif 1-94, biotin-A3G peptide, dose response retest (AID 1117319); TR-FRET GST-Vif / biotin-A3G peptide binding; higher % means a stronger effect; test concentration not given here; strong numbers were not always called active; one-dose inhibition, %; IC50 in µM for titrated hits; Virion infectivity factor (Human immunodeficiency virus type 1 group M subtype B (isolate …; actives 0.57% (n = 260,000);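 active = above the screen mean plus three standard deviations and confirmed in dose response; inconclusive = results disagree or hit not tested in dose response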;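 also: Vif residues 1-94 fused to GST binding biotinylated APOBEC3G peptide 110-148; 0% = full assay without inhibitor and 100% = GST in place of GST-Vif; retest series ran down from 100 µM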
LANA-H2A inh: blockers of LANA interaction with H2A/H2B – biochemical, FP readout, HTS, primary screen; Protein LANA1 (Human herpesvirus 8 type P (isolate GK18)), Q9QR71; cell-free LANA-H2A/H2B peptide, fluorescence polarization; inhibition, % (no concentration beside the values); actives 0.6% (n = 320,000); AID 2629, 2010; in the data active = inhibition mostly above about 10%, no sharp cut-off; inactive = mostly below about 6.7%;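 also: stock transfer was 7.5 nL into about 10 µL; 0% = median of vehicle wells and 100% = median of positive control wells; one replicate is shown; the record names a cut of 25% in any replicate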
UCH37 inh: inhibitors of human UCH37 deubiquitinase, primary screen, biochemical, Ub-AMC cleavage, fluorescence | AID 588478, 2011 | inhibition, % (no concentration beside the values) | actives 0.33% (n = 330,000) | Ubiquitin carboxyl-terminal hydrolase isozyme L5 (Homo sapiens), Q9Y5K5 | purified proteasome/UCH37;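 active = mean of two replicates above 20%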;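 also: 0% = compound-free wells with enzyme and 100% = wells lacking proteasome; stock transfer was 100 nL into about 20 µL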
Target sequence (Q9Y5K5 whole entry, looked up): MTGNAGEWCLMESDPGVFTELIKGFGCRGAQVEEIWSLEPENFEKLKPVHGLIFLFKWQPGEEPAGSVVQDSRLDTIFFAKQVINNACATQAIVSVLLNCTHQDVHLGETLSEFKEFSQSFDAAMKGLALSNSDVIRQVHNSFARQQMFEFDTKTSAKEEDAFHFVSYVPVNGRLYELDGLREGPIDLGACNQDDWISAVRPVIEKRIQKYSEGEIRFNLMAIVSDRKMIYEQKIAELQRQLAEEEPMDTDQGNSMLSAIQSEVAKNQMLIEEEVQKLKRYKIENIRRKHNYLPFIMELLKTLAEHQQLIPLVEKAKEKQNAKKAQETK
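Test system – human UCH37 enzyme supplied as purified proteasome complex · Incubation – 30 min preincubation with enzyme, 25 min cleavage at room temperature · Detection – AMC fluorescence from Ub-AMC cleavage, excitation 355 nm, emission 460 nm · Benchmarks – no-proteasome wells (full inhibition) and compound-free wells (no inhibition)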
B2AR ag: beta2AR agonists driving receptor internalization, primary screen, cell-based, FAP fluorogen, flow cytometry. Beta-2 adrenergic receptor (Homo sapiens), P07550. Am2.2-beta2AR cells; reference of the scale not given here. response, % (concentration not given with the values). actives 0.43% (n = 340,000). AID 504454, 2011;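 active = response above a set limit, near 3 SD of response in nonfluorescent compounds, cut at about 42% in these data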;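 also: stock transfer was 100 nL into about 11 µL; a reference agonist was the positive control; negative values mostly stem from fluorescent compounds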
HNF4A DNA FP: change in binding of human HNF4A to DNA, primary screen, biochemical, fluorescence polarization, FITC-DNA | activity change, % at 10 µM | 1 h | AID 1224865, 2016 | actives 0.3% (n = 360,000); in the data active = activity change above about 30%, passing the limit was not always enough;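 also: controls were the assay level and a saturating level of protein; the project sought stronger binding though the title names inhibitors; some compounds called inactive have numbers as strong as hits; positive values seem to mean higher polarization but the record does not say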
Target sequence (P41235 whole entry, looked up): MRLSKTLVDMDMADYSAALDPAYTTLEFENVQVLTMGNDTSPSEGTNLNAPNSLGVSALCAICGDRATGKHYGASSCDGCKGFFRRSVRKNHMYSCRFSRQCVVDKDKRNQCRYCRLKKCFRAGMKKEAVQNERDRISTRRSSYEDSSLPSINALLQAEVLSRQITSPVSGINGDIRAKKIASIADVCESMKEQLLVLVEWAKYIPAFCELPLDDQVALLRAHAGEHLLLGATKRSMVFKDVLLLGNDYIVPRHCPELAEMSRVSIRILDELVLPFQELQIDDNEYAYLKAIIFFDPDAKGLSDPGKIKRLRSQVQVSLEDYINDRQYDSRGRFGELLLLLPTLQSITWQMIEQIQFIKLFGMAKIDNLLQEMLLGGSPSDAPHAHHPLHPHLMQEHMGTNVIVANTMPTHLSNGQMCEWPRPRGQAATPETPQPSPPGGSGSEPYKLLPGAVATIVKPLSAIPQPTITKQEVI
Ecoli growth: E. coli growth inhibition, primary screen, OD600; Escherichia coli growth, 23 h; stronger effect = lower value; AID 1053175, 2014; OD600 absorbance (no concentration beside the values); actives 0.21% (n = 330,000);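 active = OD600 absorbance below the run mean of sample wells minus 3.6 SD, in any replicate, cut at about 0.56 in these data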;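 also: stock transfer was 300 nL into about 60 µL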
Bfl-1 A1 inh: caspase 3/7 activation in MEF A1-2A-BIM cells, primary screen, A1 inhibitor project, cell-based, luminescence, HTS. Caspase-Glo 3/7 luminescence, 3 h; percent of clofoctol response, vehicle zero. caspase activation, % (concentration not given with the values). actives 0.066% (n = 330,000). AID 2462, 2010;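 active = over half of replicate activation scores above 10%, or exactly half above 10 with the replicate mean above 10; inconclusive = replicate mean below 10 yet half the replicates above 10; inactive = over half of replicates below 10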;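 also: wells of about 30 µL received 50 nL stock; many hits fall short of the cut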
The depositor's hits bear a star; ? = inconclusive; · = no result given; & = joins results of further samples.

The first 3 records, to show the layout:
SMILES	Vif TR-FRET	LANA-H2A inh	UCH37 inh	B2AR ag	HNF4A DNA FP	Ecoli growth	Bfl-1 A1 inh
CCOc1ccc(CCNC(=O)C2CCCN(S(=O)(=O)N3CC(C)CC(C)C3)C2)cc1OCC (stereo not drawn)	·	-3.1	1.9	-8	0.3	0.71	2.0
CC1CN(C(=O)CCn2c(=O)oc3ccccc32)CC(C)O1 (stereo not drawn)	-8%	-1.4	0.5	4	1.4	0.72	2.1
Cc1ccccc1N(C)C(=O)C1CCCN(c2ncnc3c2nc2n3CCCCC2)C1 (stereo not drawn)	-2%	3.7	3.3	-19	-2.5	0.68	3.0

Main list, previewed entries included:
SMILES	Vif TR-FRET	LANA-H2A inh	UCH37 inh	B2AR ag	HNF4A DNA FP	Ecoli growth	Bfl-1 A1 inh
CCOc1ccc(CCNC(=O)C2CCCN(S(=O)(=O)N3CC(C)CC(C)C3)C2)cc1OCC (stereo not drawn)	·	-3.1	1.9	-8	0.3	0.71	2.0
CC1CN(C(=O)CCn2c(=O)oc3ccccc32)CC(C)O1 (stereo not drawn)	-8%	-1.4	0.5	4	1.4	0.72	2.1
Cc1ccccc1N(C)C(=O)C1CCCN(c2ncnc3c2nc2n3CCCCC2)C1 (stereo not drawn)	-2%	3.7	3.3	-19	-2.5	0.68	3.0
C#CCNC(=O)C1=C[C@H](c2ccc(C(F)(F)F)cc2)[C@@H](CCCO)[C@H](OCC)O1	?	-1.2	0.6	6	0.9	·	1.2
CC(NC(=O)COc1ccccc1F)C1CC2CCC1C2 (stereo not drawn)	-1%	5.2	3.2	-6	-0.6	0.72	-0.2
COc1nc(NCCc2ccc(OC)c(OC)c2)nc(Nc2ccccc2)n1	2%	-1.8	0.5	6	-1.1	0.62	-1.4
Cc1ccc(C(=O)Nc2nn(C)c3cccc(F)c23)cc1	19%	-2.9	2.6	-1	1.7	0.68	-0.8
CC(=O)Nc1ccc(N(C(=O)c2ccco2)C(C(=O)NC2CCCC2)c2ccncc2)cc1 (stereo not drawn)	0%	-14	2.2	2	1.9	0.66	0.0
N=c1c2c3c(sc2ncn1Cc1ccccc1)CCCC3	1%	-2.8	3.9	-12	-3.4	0.7	-0.5
O=C(c1cn(Cc2ccccc2)nc1-c1ccccc1)N1CCN(c2ccccn2)CC1	-4%	-6.1	3.5	-15	-0.3	0.71	-0.1
CCCC(C(=O)NCCC(C)C)N(Cc1ccccc1Cl)C(=O)c1snc(C(N)=O)c1N (stereo not drawn)	·	3.1	-21	8	-0.1	0.68	-3.3
NC(N)=N/N=C/c1ccc(OS(=O)(=O)c2ccccc2)cc1	5%	3.3	·	14	3.4	·	-0.5
Cc1ccc(S(=O)(=O)NCC2NCCc3ccccc32)cc1 (stereo not drawn)	0%	0.2	-9.0	-3	-3.4	0.68	0.4
N#Cc1ncc(-c2ccc3c(c2)OCCOCCOCCOCCOCCO3)nc1C#N	15%	4.4	-1.9	3	3.2	0.68	-0.2
COc1ccc(C(=O)NCCC2=CCCCC2)cc1S(=O)(=O)N1CCOCC1	2%	-4.7	3.1	4	-2.4	0.7	0.5
Cc1nnc(SC(=O)N2c3ccccc3Sc3ccccc32)s1	-2%	8.9	3.3	9	-0.4	0.66	-0.8
CCCCCCCN1C(Nc2ccccc2)=NC[C@@H]1Cc1ccccc1	·	-1.0	0.4	19	4.3	·	0.0
ClC1(Cl)CC1Cn1cnc2ccccc21 (stereo not drawn)	16%	1.1	5.8	-10	-1.0	0.69	-0.9
Cc1csc(SCCn2c(Br)nc3c2c(=O)[nH]c(=O)n3C)n1	-10%&-2%	3.0	2.9	0	2.9	0.71	0.2
COc1cc(NS(=O)(=O)c2ccc(NC(=S)NC(=O)c3ccc(Br)cc3)cc2)ncn1	·	3.4	5.4	4	-1.3	0.71	1.1
CCC[C@H]1CC(=O)C=C(c2ccsc2)ON1C(=O)OC(C)(C)C	-11%	·	2.9	7	-0.6	0.68	·
c1ccc2c(Nc3ccc4c(c3)OCCO4)c3c(nc2c1)CCC3	2%	-2.8	2.8	-7	3.1	0.64	0.3
Cc1ccc(SCC(=O)Nc2ccc(N3CCOCC3)cc2)cc1C	-9%	-3.8	0.1	0	-5.4	0.69	-0.4
CCOC(=O)c1c(NC(=S)N2CCN(C)CC2)sc2c1CCN(C(=O)OCC)C2	-5%	-4.0	4.9	1	1.5	0.63	0.3
CC1(c2cc([N+](=O)[O-])cc([N+](=O)[O-])c2)CC(C)(C)N(C(=O)c2ccccc2)c2ccccc21 (stereo not drawn)	0%	-0.8	-0.4	6	-1.8	0.74	0.5

The list goes on, starting with the last 2 of the part before.
SMILES	Vif TR-FRET	LANA-H2A inh	UCH37 inh	B2AR ag	HNF4A DNA FP	Ecoli growth	Bfl-1 A1 inh
CCOC(=O)c1c(NC(=S)N2CCN(C)CC2)sc2c1CCN(C(=O)OCC)C2	-5%	-4.0	4.9	1	1.5	0.63	0.3
CC1(c2cc([N+](=O)[O-])cc([N+](=O)[O-])c2)CC(C)(C)N(C(=O)c2ccccc2)c2ccccc21 (stereo not drawn)	0%	-0.8	-0.4	6	-1.8	0.74	0.5
O=c1cc[nH]c2ccc([N+](=O)[O-])cc12	-5%	-3.4	4.0	-11	3.2	0.67	0.1
COc1ccccc1NC(=O)Cc1noc(CN(C)Cc2cccs2)n1	-4%	1.1	-0.2	5	5.0	0.72	-0.4
Cc1cc(-c2nnc(CCC(=O)NC(C)c3ccccc3Cl)o2)no1 (stereo not drawn)	?	-2.0	0.5	-1	2.2	0.7	0.0
COc1ccccc1N1CCN(C(=O)c2cc(N3C(=O)C4C5CCC(C5)C4C3=O)ccc2Cl)CC1 (stereo not drawn)	·	-4.3	1.1	0	0.2	0.67	-0.9
Cc1cc(C)n(CC(=O)N/N=C/c2cccs2)n1	·	0.6	·	-3	-0.5	·	1.3
CN(C)S(=O)(=O)N1CCC(n2nccc2NC(=O)CCc2ccccc2)CC1	-7%	-4.0	·	1	-2.5	·	-0.5
Cc1[nH]c(C)c(S(=O)(=O)NCc2ccc(Cl)cc2)c1C(=O)N1CCCC1	-4%	-3.4	5.3	0	-4.0	0.67	1.0
COc1cccc(NC(=O)c2ccc(C(=O)c3ccccc3)o2)c1	-8%	5.1	-1.8	7	-0.7	0.72	-1.9
Cc1cccc(NC(=O)CN(CC2CCCO2)C(=O)c2oc3ccccc3c2C)c1C (stereo not drawn)	-7%	1.4	0.5	0	2.6	0.72	-0.9
COc1cc2ccccc2cc1C(=O)Nc1ccccc1N1CCN(S(C)(=O)=O)CC1	-2%	1.8	-19	-2	2.1	0.72	0.1
Cc1ccc(O)c(C(=O)CC(=O)c2ccc(Cl)cc2)c1	0%	0.6	2.2	15	-5.5	0.58	-5.4
Cc1ccccc1NC(=O)c1nn(-c2ccc(F)c(F)c2)ccc1=O	4%	3.8	6.0	-16	-5.3	0.71	0.1
CCc1ccc(-c2nc(CSCC(=O)NCc3ccco3)c(C)o2)cc1	4%	·	-1.8	8	4.2	0.69	·
CCN1C(=NCc2ccco2)N[C@@H](c2cccc(C(F)(F)F)c2)C(C(=O)OC)=C1C	·	7.6	0.0	1	20	·	0.6
CC(=O)Nc1ccc(S(=O)(=O)N2CCSCC2)cc1	0%	2.8	4.0	2	-4.7	0.66	0.1
O=C(NCc1ccc(Cl)cc1)c1cccc(S(=O)(=O)N2CCCC2)c1	15%	4.5	2.6	9	3.7	0.69	-1.0
Cc1cc(NCc2cccnc2)nc(N)n1	1%	6.1	0.3	-1	-0.5	0.68	-1.3
COC(=O)CCC(=O)Nc1ccc(S(=O)(=O)Nc2nc(C)cc(C)n2)cc1	·	0.8	-0.4	-1	-5.0	0.67	0.0
Cc1cccc(C(=O)NN(C)c2nc(-c3ccccc3)nnc2C(F)(F)F)c1	30%	2.4	0.2	-8	0.6	0.67	0.5
CN1C(=O)S/C(=C/c2cccnc2)C1=O	-10%	1.7	7.8	9	1.5	0.69	0.0
N=c1oc2ccccc2cc1C(=O)Nc1cccc(F)c1	-6%	1.1	1.8	-10	1.4	0.64	-11
Oc1ccc(N=Cc2ccc(OCc3ccccc3)cc2)cc1	2.1µM*	-1.2	5.7	-2	0.2	0.7	-1.4
COc1ccc(-c2noc3c2-c2nc(-c4cccc(C)c4)sc2CC3)cc1	·	-4.7	0.6	-3	-1.8	0.69	1.7
CCCNC(=O)C1Cc2cc(S(=O)(=O)N3CCCC3)ccc2N1C(C)=O (stereo not drawn)	·	-0.2	5.0	3	1.6	0.69	0.3
Cc1cc(=O)n2nc(N3CCCC(C(=O)NCc4cccc(Br)c4)C3)sc2n1 (stereo not drawn)	7%	-1.0	1.3	-10	3.0	0.65	-0.2
(more compounds)
SMILES	Vif TR-FRET	LANA-H2A inh	UCH37 inh	B2AR ag	HNF4A DNA FP	Ecoli growth	Bfl-1 A1 inh
O=C(CSc1nc2cc(Cl)ccc2o1)NC1CC1	·	-0.5	3.2	4	3.6	0.7	-0.3
O=C(C1CCN(S(=O)(=O)c2ccc(F)cc2)CC1)N1CCOCC1	0%	2.3	1.4	-1	13	0.71	-0.2
[O-][n+]1onc2c1CCC(=N/O)/C2=N\Nc1ccccc1	?	1.4	·	·	·	·	-0.9
O=C(Nc1ccc(CN2CCOCC2)cc1)c1cc2ccccc2o1	4%	-0.9	6.6	-10	2.2	0.67	-1.9
C=CCNC(=O)c1onc(CCl)c1C(=O)OC	13%	-4.6	2.4	4	-2.0	0.7	1.1
Cn1c(=O)c2c(nc(CN3CCN(C(=O)c4ccco4)CC3)n2CCc2ccccc2)n(C)c1=O	12%	-4.1	0.8	-23	-7.3	0.68	0.1
C=CCn1c(SCC(=O)c2c(N)n(C)c(=O)n(C)c2=O)nnc1-c1ccccc1F	80%	-0.3	0.7	2	-3.5	0.63	1.2
CC1CCCC(C)N1CCCNC(=O)C1CCCN(c2ncnc3c2nc2n3CCCCC2)C1 (stereo not drawn)	·	-0.4	0.0	1	1.4	0.65	-0.5
Cc1ccc(S(=O)(=O)N2CCCCC2)cc1NC(=O)c1cc(F)c(F)c(F)c1F	-1%	-1.0	0.6	2	9.9	0.72	0.1
COc1ccc(C(c2nnnn2C2CCCC2)N2CCN(C(=O)c3ccco3)CC2)cc1OC (stereo not drawn)	·	5.1	·	1	0.5	·	-0.3
CN(CCCCCCCCC(=O)/C=N/O)Cc1ccccc1	-2%	-0.4	·	-11	6.3	·	-0.2
C(=N\c1nc2ccccc2n1CCN1CCOCC1)/c1cccs1	-1%	-0.2	·	-3	-0.6	·	0.0
CC(=O)c1cnn(-c2ccc(Cl)c(Cl)c2Cl)c1C	?	3.6	0.4	-3	1.5	0.65	0.5
COC(=O)CSc1nc2c(c(-c3ccco3)c1C#N)CCCC2	?	-1.8	0.5	4	5.5	0.77	-1.3
CCOc1ccc(C2NC(=O)Cc3cc(OC)c(OC)cc32)cc1 (stereo not drawn)	0%	-1.2	1.2	-6	-0.5	0.65	0.5
CN(C)CCCNC(=O)N1c2ccccc2C=Cc2ccccc21	-7%	1.5	7.7	-7	2.1	0.67	0.6
CCn1c(Cc2ccccc2)nnc1SCC(=O)Nc1ccc(N)cc1	-2%	5.7	1.4	1	1.4	0.7	-0.5
O=C(NCc1cccc(Cl)c1)c1cccc(S(=O)(=O)N2CCCCC2)c1	·	4.0	2.9	-5	1.8	0.69	-0.3
